CapD inh: CapD enzyme inhibition | purified CapD enzyme, fluorescence intensity read-out; hits give low values; some hits fall short of the stated cut | z-score (test concentration not listed) | actives 0.23% (n = 140,000) | AID 492967;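 active = z-score under -4 in either of two replicates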;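 also: stock transfer was 100 nL into about 40 µL; score is relative to mean and spread of the plate; one replicate is shown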
AID504770: E. coli YBA685 growth inhibition, screen for V. cholerae RctB inhibitors; z-score (test concentration not listed); E. coli YBA685 rctB-dependent plasmid, OD600 growth, 3 h; hits give low values; actives 0.27% (n = 130,000);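 active = z-score under -2 on both plates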;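 also: wells of about 30 µL received 100 nL stock; score is relative to mean and SD of the test wells; the first replicate is given; strong numbers were not always called active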
Active calls of the source: *; x = no result given. Outcome played no part in choosing rows. Share with any hit: about 0.41%.

SMILES | CapD inh | AID504770
CC(C)(C)N(Cc1ccccc1)C(=O)C1COc2ccccc2O1 (stereo not given) | x | -0.45
COc1ccc(/C=C2/C(=O)Nc3ccccc32)cc1 | -2.7 | 0.3
Cc1nc(C(=O)Nc2ccc(Cl)cc2Cl)nn1-c1ccc([N+](=O)[O-])cc1 | -1.2 | x
O=C(Nc1ccc(N2CCOCC2)c(Cl)c1)c1ccccc1 | 0.39 | -0.65
CC(C)c1ccc(NC(=O)COC(=O)C2CCCCC2)cc1 | -0.44 | -1
O=C(CNc1ccc(Br)cc1)N/N=C/c1ccco1 | 0.33 | 1
COc1ccc(N2C(=O)NC(=O)/C(=C/c3cc(Br)c(O)c(OC)c3)C2=O)cc1 | -1.4 | x
COc1cc(C2N(c3ccc(Cl)cc3)N=C(C(C)=O)N2c2ccccc2)ccc1OCc1c(Cl)cccc1Cl (stereo not given) | 0.015 | x
c1ccc2sc(CSC3=NCCN3)nc2c1 | x | -0.95
CCCc1[nH]n(-c2ccc(F)cc2)c(=O)c1/C=N/N1CCN(C)CC1 | -0.61 | x
Cc1ccc(-c2[nH]c(-c3ccc(F)cc3)nc2SCC(=O)NCC2CCCO2)cc1 (stereo not given) | 5.1 | 0.3
COC(=O)c1cn(-c2ccccc2)nc1-c1cccnc1 | 2.7 | 0.15
Cc1cccc(C)c1-n1nnnc1C1(Nc2ccc(I)cc2)CCCC1 | -0.05 | x
CC(=O)c1cc2ccccc2o1 | 1.6 | x
O=C(COc1ccccc1O)NCCO | x | 0.8
Cc1ccc2oc(=O)c(CCC(=O)O)nc2c1 | 0.43 | 2.1
CC(=O)N(Cc1cccc(Br)c1)c1ccc2oc(-c3ccc(C)cc3)nc2c1 | -0.075 | -0.05
COC(=O)c1cc(Oc2ncnc3scc(-c4ccc(C)cc4)c23)cc(C(=O)OC)c1 | 0.16 | x
Nc1ncnc(Sc2nc3ccccc3o2)c1[N+](=O)[O-] | -0.37 | x
Cc1ccc(-n2c(O)c(C=NCc3ccncc3)c3ccccc3c2=O)cc1C | 0.4 | 0
O=C(O)CCC(=O)OCCN1CCN(CCC(=O)N2c3ccccc3Sc3ccc(C(F)(F)F)cc32)CC1 | 0.085 | x
CNC(=O)NCc1c(N(C)C)cccc1N(C)C | 0.22 | -0.25
CN1CCN(CC(=O)N/N=C/c2ccc(F)c(F)c2)CC1 | -0.16 | -0.4
C=CCN1C(=O)c2ccc(C(=O)OCC(=O)Nc3ccccc3OC)cc2C1=O | x | 0.2
COCCNC(=O)Nc1ccc2c(c1)nc(C)n2C | x | 0
Carrying on.
SMILES | CapD inh | AID504770
O=C(Cn1ncc2c1-c1ccccc1OC2)N1CCC2(CC1)OCCO2 | -0.08 | -0.95
CCS(=O)(=O)N1CCC(C(=O)N2CCN(Cc3ccc4c(c3)OCO4)CC2)CC1 | x | -0.05
C=CCN1C(=O)/C(=c2\sc3n(c2=O)C(c2cccs2)C(C(=O)OCC)=C(C)N=3)c2ccccc21 (stereo not given) | 0.11 | x
CC(NC(=O)OCCc1ccccc1F)C(=O)Nc1ccc2ccccc2c1 (stereo not given) | -0.015 | x
NS(=O)(=O)c1ccc(NC(=O)c2ccc(Cl)s2)cc1 | 1.4 | 0.55
CCOC(=O)c1c(O)cc(C)cc1Nc1ccccc1 | -0.43 | -0.05
N#Cc1ccccc1NC(=O)c1ccco1 | -1.1 | -0.15
CNCC(=O)N(C)c1c(N)n(Cc2ccccc2)c(=O)[nH]c1=O | x | -0.55
O=C(c1ccccc1)N1CCN(C(=O)c2ccccc2C(F)(F)F)CC1 | 0.2 | x
CN(c1ccccc1)S(=O)(=O)Cc1ccccc1 | -0.27 | -1.1
CCOC(=O)/C(C#N)=C/Nc1ccc2oc3ncccc3c(=O)c2c1 | 0.43 | x
CN1CCN(C2=NC(=O)/C(=C/c3cccc(F)c3)S2)CC1 | -2.5 | x
CCOc1ccc(/C=N/NC(=O)CS(=O)(=O)c2ccc(C(F)(F)F)cn2)cc1OC | 0.02 | x
NC(=S)CSc1ccccc1 | 0.34 | x
FC(F)(F)c1ccc(SCc2ccc(-c3ncns3)cc2)nc1 | 1.1 | -1.3
CC1=C(c2ccccn2)Oc2ccccc2O1 | 12 | -0.4
O=C(NCc1cccs1)c1cc(F)cc2c1OCOC2 | 1.3 | 0
CCS(=O)(=O)N1CCN(C(=O)c2ccccc2Cl)CC1 | x | -0.75
COc1ccc2[nH]cc(CCC(=O)O)c2c1 | 1.5 | -0.2
Cc1cc(N/C=C2/C(=O)c3sccc3N(Cc3cccc(F)c3)S2(=O)=O)no1 | 1.3 | -0.15
Cn1cnc2c(=O)oc3ccc(S(=O)(=O)NC4CCCC4)cc3c21 | 0.77 | -0.35
COc1ccc(CCNC(=O)c2ccc3c(c2)nc(C)n3-c2cccc(C)c2)cc1OC | -0.13 | x
O=C(OCc1nnc(-c2cc3c(s2)CCCC3)o1)c1cccc(CN2C(=O)c3ccccc3C2=O)c1 | x | -0.1
CC(C)(C)NC(=O)NC(=O)Cn1nnc(-c2ccccc2)n1 | x | -0.15
CC(C)COC(=O)COc1ccc2c(=O)c(Oc3ccccc3Br)coc2c1 | -0.46 | x

Random excerpt: 2 records from the list.
SMILES | CapD inh | AID504770
FC(F)(F)c1ccc(SCc2ccc(-c3ncns3)cc2)nc1 | 1.1 | -1.3
O=C(c1ccccc1)N1CCN(C(=O)c2ccccc2C(F)(F)F)CC1 | 0.2 | x

Carrying on:
SMILES | CapD inh | AID504770
COc1ccc(-c2nc(NC3CCCCC3)c3ccccc3n2)cc1OC | 36 | x
CC(=O)NCC(=O)Nc1ccc(Br)cc1C(=O)c1ccccc1 | -0.76 | -0.15
O=C(Nc1ccc(-n2nncc2-c2ccccc2)cc1)c1ccc(F)cc1 | 0.62 | -0.25
Cc1ccc(C(=O)c2cnc3cc4c(cc3c2N2CCCC2)OCO4)cc1C | -1.9 | 0.2
COC(=O)c1sccc1N1CC(C)(C)C1=O | -0.25 | 1.7
CCCc1[nH]n(C)c(=O)c1C(=O)c1cc2ccccc2s1 | 0.04 | x
CCOC(=O)c1cc(S(=O)(=O)NC(C)CC)cn1C (stereo not given) | 0.8 | -0.15
O=C(c1ccc(Cl)cc1)c1cnc2ccccn12 | -0.76 | 0.05
CC(SC1=NCCS1)C(=O)Nc1nnc(-c2ccc(Cl)cc2)s1 (stereo not given) | x | -0.05
COc1ccc(Br)cc1/C=C1\C(=O)NC(=O)N(CCC2=CCCCC2)C1=O | 1.1 | 0.15
Cc1ccc(C)c(CSc2ncccc2C(=O)O)c1 | 0.35 | 0.55
O=c1c2ccccc2nc2n1C(CSc1ccccc1Cl)CS2 (stereo not given) | -0.07 | x
COc1ccc2[nH]cc(CCNC(=O)C3CC3)c2c1 | 1.8 | -1.7
NC(=O)COc1ccc(/C=N/NS(=O)(=O)c2ccccc2)cc1 | x | 0.05
Cc1cnc(CC#N)s1 | x | 0
CCNc1nc(NC(C)C)nc(OCCNC(=O)COc2ccc(Cl)cc2C)n1 | x | -0.7
COc1ccc(NC(=O)CSC(=O)c2ccccc2)cc1Cl | -0.24 | 1.3
Cc1ccc(C)c(OCCC(=O)N=c2sccn2C)c1 | x | 0.55
CCNC12CC3CC(CC(C3)C1)C2 | -0.22 | 0.35
CCOC(=O)C1CCCN(C(=O)c2cncc(Br)c2)C1 (stereo not given) | 0.29 | 0.25
Cc1ccc(-c2onc3ccc(C4(C)OCCO4)cc23)cc1 | 0.18 | -0.65
O=C1CC2(CCCC2)C(=O)N1c1ccc(Cl)c(Cl)c1 | 0.24 | 0.15
CCOc1cc(/C=C2/SC(=S)NC2=O)ccc1OS(=O)(=O)c1ccccc1[N+](=O)[O-] | -1.7 | x
Oc1ccc(-c2nnco2)cc1 | 0.24 | -0.9
CN(Cc1ccccc1)CN1C(=O)C2(OCC(C)(c3ccccc3)CO2)c2ccccc21 (stereo not given) | -1.2 | x
The listing continues:
SMILES | CapD inh | AID504770
COc1cc(OC)nc(OC(Cc2nc3ccccc3o2)c2ccccc2)n1 (stereo not given) | -0.64 | x
O=C(CSc1nc(-c2ccccc2)c(-c2ccccc2)[nH]1)NCc1ccco1 | 33 | 0.4
Cc1nn(-c2cccc(Cl)c2)nc1C(=O)N(C)CC(=O)NCc1ccco1 | x | 2.2
O=C1CC(c2ccccc2I)c2c(ccc3ccccc23)N1 (stereo not given) | 0.38 | x
COC(=O)c1ccc(COC(=O)C2CSC3(c4ccc(Br)cc4)CCC(=O)N23)o1 (stereo not given) | x | 0.05
C=C(C)C1Cc2cc3ccc(=O)oc3cc2O1 (stereo not given) | 45 | 0.05
COc1ccc(C2CC3(OCCO3)C3(CCCCC3)O2)cc1 (stereo not given) | 0.22 | -0.95
COC(=O)c1ccc(C2N(c3ccc(C)cc3)CCN2c2ccc(C)cc2)cc1 | -0.21 | x
O=CNCc1ccccc1OC(F)F | x | 0.4
O=C(Nc1ncnc2sc3c(c12)CCC3)c1cccs1 | 9.6 | 0
N#Cc1ccc(COC(=O)C2CCCCC2)cc1 | x | 1
CC1=CC(=C(C#N)C#N)C=C(C)N1Cc1cccnc1 | x | 0.35
Cc1c(Cl)cccc1N=C1SCC(=O)N1Cc1ccco1 | -0.23 | -0.3
O=C(c1cc2c(s1)CCC2)N1C(=O)c2ccccc2S1(=O)=O | x | 0.25
CCOc1ccc2c(C)c(Cl)c(=O)oc2c1C | 75 | -0.7
CCOc1ccc(C2CC(=O)NC(SCC(=O)Nc3ccccc3Cl)=C2C#N)cc1 (stereo not given) | -0.28 | -0.95
Cc1c(C#N)c(N)nc(SCC(=O)c2cc3ccccc3oc2=O)c1C#N | x | -0.05
Cc1cc(C)nc(NCC(O)CNc2ccccc2C)n1 (stereo not given) | 0.26 | -0.85
O=c1cc(CSc2ccc(Cl)cc2)nc2sccn12 | 0.18 | -0.4
Cc1c(C(=O)N2CCN(c3ccccc3F)CC2)sc2nc3n(c(=O)c12)CCCC3 | 0.18 | -1.2
CCOC(=O)C1=C(N)n2c(s/c(=C\c3ccc(Cl)cc3)c2=O)=C(C(=O)OCC)C1c1ccc(Cl)cc1 (stereo not given) | -0.03 | x
CCCCn1c(SCc2nnc(-c3cccs3)o2)nc2cc(S(N)(=O)=O)ccc21 | x | 0.3
Cc1ccc(NC(=S)N(CCc2ccccc2)Cc2ccccc2)cc1 | 15 | 1.8
CN(CC(=O)Nc1ccc(F)cc1)C(=O)c1ccc2ccccc2n1 | x | 0.2
COc1ccc(-c2ccnc3nc(SC/C=C/c4ccccc4)nn23)cc1 | 89 | x

Sorted by heavy-atom count (low to high): five of the compounds above
SMILES | CapD inh | AID504770
CCOc1ccc2c(C)c(Cl)c(=O)oc2c1C | 75 | -0.7
N#Cc1ccc(COC(=O)C2CCCCC2)cc1 | x | 1
O=C1CC(c2ccccc2I)c2c(ccc3ccccc23)N1 (stereo not given) | 0.38 | x
CN(CC(=O)Nc1ccc(F)cc1)C(=O)c1ccc2ccccc2n1 | x | 0.2
COC(=O)c1ccc(C2N(c3ccc(C)cc3)CCN2c2ccc(C)cc2)cc1 | -0.21 | x

(more compounds)
SMILES | CapD inh | AID504770
CCOc1ccc(Br)cc1/C=C/c1nc2ccccc2s1 | 25 | x
O=S(=O)(Nc1nonc1NS(=O)(=O)c1ccc(F)cc1)c1ccc(F)cc1 | -2.1 | -0.45
CN1C(=O)C(CC(=O)NCC2CCCCC2)SC1=Nc1ccccc1 (stereo not given) | x | 0.7
c1ccc(CSc2nc3ncccc3o2)cc1 | -0.18 | -0.8
CC1(C)COC(CCOC(=O)NNC(=O)CC2Sc3ccccc3NC2=O)OC1 (stereo not given) | -0.52 | x
NC1CCN(Cc2ccccc2)CC1 | x | 1.7
Cc1c(Br)c(C(F)(F)F)nn1CC(=O)Nn1c(-c2cccs2)nc2ccccc2c1=O | -0.47 | x
COc1ccccc1-c1nc(-c2ccc(NC(=O)c3cccs3)cc2)no1 | 2.6 | x
Cc1ccc(F)cc1N1C(=O)COCC1=O | 1.4 | 0
CCCC(=O)N(c1ccc2oc(C)c(C(C)=O)c2c1)S(=O)(=O)c1ccc(Br)cc1 | -0.46 | x
O=C(CCCN1C(=O)c2ccccc2C1=O)Nc1ccccc1 | x | 0.45
O=C(CSc1ncn[nH]1)NCc1ccccc1 | 0.39 | -0.65
COc1cc(OC)nc(CSc2ncc(C(=O)NCc3cccc(C(F)(F)F)c3)n2C)n1 | -0.27 | x
COc1ccccc1N1CCN(CCCCNC(=O)c2ccco2)CC1 | 0.65 | -0.05
N#Cc1ccc(/C=N/n2cnnc2)cc1 | x | -2.9
CCOC(=O)CSC1=Nc2ccccc2C2=NC(CC(=O)NCc3ccc(OC)cc3)C(=O)N12 (stereo not given) | 10 | -0.25
COc1ccc2c(ccc(/C=C3\Sc4ccccc4N3C)[n+]2C)c1 | 0.29 | 1.1
Cc1nc2ccc(S(=O)(=O)NCC(=O)NC3CCCCCC3)cc2s1 | 0.57 | 0.45
CCC(C)c1c(O)nc2n(c1=O)CCCS2 (stereo not given) | 0.24 | -0.5
CN(C(=O)Cn1nnc2ccccc2c1=O)C1CCCc2ccccc21 (stereo not given) | x | -0.25
Cc1ccc(N=Nc2c(O)n(CN3CCOCC3)c3ccccc23)cc1 | -0.37 | x
O=C(CSC1=NCCS1)N1CCCCCC1 | x | -0.5
COc1ccc(Oc2c(N3CCCCC3)cnn(-c3ccc(C)cc3)c2=O)cc1 | -0.1 | x
O=C(Nc1ccccc1)N1CCCC1c1cccs1 (stereo not given) | 0.68 | -0.3
Cc1cc(NCc2ccccc2)nc(-c2ccccc2O)n1 | 5.9 | -0.15

Another view of some results above.
Every second line gives: CapD inh	AID504770
- CN1C(=O)C(CC(=O)NCC2CCCCC2)SC1=Nc1ccccc1 (stereo not given)
 : x	0.7
- c1ccc(CSc2nc3ncccc3o2)cc1
 : -0.18	-0.8
- CC1(C)COC(CCOC(=O)NNC(=O)CC2Sc3ccccc3NC2=O)OC1 (stereo not given)
 : -0.52	x
- NC1CCN(Cc2ccccc2)CC1
 : x	1.7
- Cc1c(Br)c(C(F)(F)F)nn1CC(=O)Nn1c(-c2cccs2)nc2ccccc2c1=O
 : -0.47	x
- COc1ccccc1-c1nc(-c2ccc(NC(=O)c3cccs3)cc2)no1
 : 2.6	x
- Cc1ccc(F)cc1N1C(=O)COCC1=O
 : 1.4	0

From PubChem
